STK33 inh: inhibitors of purified STK33 kinase, primary screen, biochemical, ADP-Glo luminescence, homogeneous, cell-free. MBP phosphorylation. inhibition, % at 10 µM. 320,000 tested, 0.073% active. Serine/threonine-protein kinase 33 (Homo sapiens), Q9BYT3;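 active means inhibition at or above 25%, using the most active replicate where run in duplicate; inactive means inhibition below 25%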
Target sequence (Q9BYT3 whole entry, looked up): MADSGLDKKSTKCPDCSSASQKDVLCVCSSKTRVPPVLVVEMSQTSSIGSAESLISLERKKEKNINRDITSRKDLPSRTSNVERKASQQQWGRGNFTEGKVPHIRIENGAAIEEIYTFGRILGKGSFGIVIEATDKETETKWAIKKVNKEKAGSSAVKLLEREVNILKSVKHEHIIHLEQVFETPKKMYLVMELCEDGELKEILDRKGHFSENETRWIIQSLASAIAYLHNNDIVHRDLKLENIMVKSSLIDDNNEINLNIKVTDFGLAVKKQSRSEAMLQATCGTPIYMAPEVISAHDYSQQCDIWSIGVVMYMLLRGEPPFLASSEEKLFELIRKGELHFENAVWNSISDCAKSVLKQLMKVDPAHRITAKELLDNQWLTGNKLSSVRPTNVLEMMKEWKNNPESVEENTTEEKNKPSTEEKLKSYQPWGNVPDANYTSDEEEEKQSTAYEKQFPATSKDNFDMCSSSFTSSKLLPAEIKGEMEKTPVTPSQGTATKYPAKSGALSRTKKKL
* = called active by the depositor.

For COc1ccccc1N1CCN(S(=O)(=O)CCNC(=O)C2CCCC2)CC1 the results were STK33 inh -0.9.
Screening NS(=O)(=O)c1ccc(NC(=O)CCCC(=O)O)cc1 returned STK33 inh -0.8.
`Cc1ccc(O)c(NC(=O)c2cc(-c3ccc(F)cc3)on2)c1` gave STK33 inh -0.7.
CCN(CC)S(=O)(=O)c1ccc(S(=O)(=O)N2CCN(CCC#N)CC2)cc1 was read as STK33 inh -1.5.
`O=C(O)CCc1nnc2n(Cc3ccc(F)cc3)c(=O)c3ccccc3n12` gave STK33 inh -1.9.
`NC(=O)C1CCCN(S(=O)(=O)c2ccc3ccccc3c2)C1` (configuration not stated) gave STK33 inh -1.3.
Screening CC(C)NC(=S)Nc1ccc(Oc2ccccc2)cc1 returned STK33 inh -1.1.
`COc1ccc(F)c(CN2CCCC(CO)(Cc3cccc(Cl)c3)C2)c1` (configuration not stated) gave STK33 inh 0.7.
Screening CCOC1CS(=O)(=O)CC1OCC (configuration not stated) returned STK33 inh -2.3.
CC1=NOC(=O)/C1=C\c1ccc(-c2ccc(Br)cc2C(=O)O)o1 was read as STK33 inh -0.6.
For CCOc1ccc(N=c2scc(-c3ccc(OC)cc3)n2CCO)cc1 the results were STK33 inh -1.5.
For CCOC(=O)c1ccc(NC(=S)N2CCSC2c2ccc(OC)cc2)cc1 (configuration not stated) the results were STK33 inh -0.4.
CC1C(=O)C(C)C(c2ccccc2F)NC1c1ccccc1F (configuration not stated) was read as STK33 inh -3.1.
For O=C(O)c1cc(-c2ccc3c(c2)OCO3)nc2ccc(Br)cc12 the results were STK33 inh 0.1.
`CCCCc1ccc(NC(=O)C2CCCO2)cc1` (configuration not stated) gave STK33 inh -1.1.
CN1C(=O)C(=O)N(CC(=O)N2CCc3ccccc32)C1=O was read as STK33 inh -1.3.
For O=C(CN1CCSC1=NCc1ccccc1)c1ccc(Cl)cc1 the results were STK33 inh -0.8.
CC(=O)NCCCc1nc2ccccc2n1Cc1cc(C)ccc1C was read as STK33 inh -2.0.
For CN1C(=O)CC(N2CCC(c3nc4ccccc4[nH]3)CC2)C1=O (configuration not stated) the results were STK33 inh -1.5.
Screening C[C@H]1CC[C@]2(O[C@@H](CCO)C[C@H](O)[C@H]2O)O1 returned STK33 inh -1.4.
For CCN(CC)CCCNC(=O)c1cc(-c2cccc(Cl)c2)on1 the results were STK33 inh 0.3.
CC1(C)CC(=O)C2=C(C1)Nc1ccccc1NC2c1ccc2c(c1)OCO2 (configuration not stated) was read as STK33 inh 0.1.
`NNC(=O)c1cccnc1Oc1ccccc1` gave STK33 inh -0.9.
Screening COC(=O)CCCC(=O)N(C)CC1CCCN(CCc2ccccc2C)C1 (configuration not stated) returned STK33 inh 0.2.
For COc1ccccc1C(=O)NCCn1ccc2ccccc21 the results were STK33 inh -0.9.
For O=C(NCc1ccncc1)c1cc(C(=O)C2CCCCC2)c[nH]1 the results were STK33 inh -0.3.
`CCOc1ccccc1NS(=O)(=O)c1c[nH]c(C(=O)OC)c1` gave STK33 inh -1.0.
For O=C(COC(=O)c1ccccc1[N+](=O)[O-])NC(=O)c1ccccc1 the results were STK33 inh -0.5.
Screening COc1ccc2nc(C)cc(SCC(=O)NNC(=O)COc3ccc(C)cc3)c2c1 returned STK33 inh -0.6.
`Cc1ccc(NC(=O)CC2SCCNC2=O)cc1[N+](=O)[O-]` (configuration not stated) gave STK33 inh 1.2.
For N#Cc1cccc2c1-c1ccccc1/C2=N/NC(N)=S the results were STK33 inh 0.9.
COc1ccc(NS(=O)(=O)c2ccc3nc(COc4ccc(C#N)cc4)[nH]c3c2)cc1 was read as STK33 inh 1.7.
Screening COC(=O)[C@@H]1C[C@@H]2CC[C@@H](O)C[C@@H]2N1Cc1ccc(C(F)(F)F)cc1 returned STK33 inh 3.2.
For COc1ccc(NC(=O)Cn2nnc(C(=O)NCc3cccs3)c2N)cc1Cl the results were STK33 inh -0.5.
For COc1ccc(CCC(=O)NNC(=O)c2ccc(OC)cc2)cc1 the results were STK33 inh -0.7.
For CC1=C(C#N)C(c2ccc(O)cc2)C2=C(CCCC2=O)N1 (configuration not stated) the results were STK33 inh -0.5.
O=C(NN1C(=O)C2C3C=CC(C4CC34)C2C1=O)c1ccc(Cl)c(Cl)c1 (configuration not stated) was read as STK33 inh 0.1.
`O=C(NCc1ccccc1)c1cc(=O)c2ccccc2o1` gave STK33 inh 0.8.
Screening CSc1ccc(/C=C2/C(=N)N3N=C(CC(=O)N4CCCC4)SC3=NC2=O)cc1 returned STK33 inh -1.3.
Screening Nc1nnc(N)c2ccccc12 returned STK33 inh -0.5.
`COc1cc(C(=O)Nc2scc(-c3ccc(Br)cc3)c2C(=O)O)cc(OC)c1OC` gave STK33 inh 2.7.
For CC(C)N1CC(O)=C(c2nc3ccccc3[nH]2)C1=N the results were STK33 inh 1.6.
Screening CCOC(=O)Cn1c2ccc(F)cc2c2nc(C)sc21 returned STK33 inh -0.4.
Screening CCN1CCN(C(=O)c2ccc3c(c2)N(Cc2ccccc2)C(=O)c2ccccc2S3(=O)=O)CC1 returned STK33 inh 0.1.
For C=CCOc1c(CNc2nccs2)cccc1OCC the results were STK33 inh 0.4.
COc1cc(CNC(C)C)c(Br)cc1OC1CCCC1 was read as STK33 inh -2.8.
`OC(Cc1ccncc1)(c1ccccc1)c1ccccc1` gave STK33 inh -1.7.
For Cc1nc(NC(=O)c2ccccc2)sc1-c1csc(Nc2ccc(Cl)cc2Cl)n1 the results were STK33 inh 1.3.
For COc1ccccc1C(=O)OC(C)CN1CCN(C)CC1 (configuration not stated) the results were STK33 inh 0.7.
Screening CC(C)(CNC(=O)c1cc(=O)[nH]c2ccccc12)N1CCOCC1 returned STK33 inh -1.4.
Nc1nc2c(c(=O)[nH]1)C(c1ccccc1)C1=C(N2)c2ccccc2C1=O (configuration not stated) was read as STK33 inh 1.0.
For Cc1ccccc1NC(=O)c1ccc(F)c(S(=O)(=O)N2CCN(c3ccccn3)CC2)c1 the results were STK33 inh -1.3.
`O=C(NC(C(=O)O)c1ccccc1)c1ccccc1` (configuration not stated) gave STK33 inh -1.2.
For Cn1c(=O)cc(SCC(=O)N2CCCC2)c2ccc(Cl)cc21 the results were STK33 inh -2.8.
`COc1cc(CN2CCN(c3cccc(C)c3C)CC2)cc([N+](=O)[O-])c1O` gave STK33 inh -1.0.
Screening Cc1cc(NC(=O)Nc2cc(F)ccc2F)no1 returned STK33 inh -0.1.
Screening Cc1ccc(CNC(=O)Cn2cccc2C(=O)c2ccccc2C)cc1 returned STK33 inh -0.8.
`CCC(N=c1cc(-c2ccc(OC)c(OC)c2)oc2ccc(C)cc12)C(=O)O` (configuration not stated) gave STK33 inh -1.9.
For O=C(c1cccc(S(=O)(=O)N2CCOCC2)c1)N1CCCCCC1 the results were STK33 inh 1.6.
Cc1ccc(CN2CCN(C/C=C/c3ccc(F)cc3)CC2CCO)o1 (configuration not stated) was read as STK33 inh -1.3.
`O=C(O)c1ccc2c(c1)-c1cc(C(=O)O)ccc1S2(=O)=O` gave STK33 inh -0.9.
For COc1ccc(CCC(=O)N2CCN(c3ccc([N+](=O)[O-])cc3)CC2)cc1OC the results were STK33 inh 0.4.
CCN(CC)c1ccc(/C=N/NC(=O)C2CC2)cc1 was read as STK33 inh -1.8.
For O=C1OC(Nc2ccc(Cl)cn2)c2ccccc21 (configuration not stated) the results were STK33 inh -5.8.
`O=C(Nc1cc2c3c(c1)CC(=O)N3CCC2)c1ccccc1Br` gave STK33 inh 0.0.
`C=CCn1c(SCc2ccccc2)nnc1-c1cccnc1` gave STK33 inh -1.4.
For Cc1ccc2cc(C#N)c(N3CCN(C)CC3)nc2c1 the results were STK33 inh -0.4.
For S=C1NC2CCCCC2N1 (configuration not stated) the results were STK33 inh -0.4.
For O=C(COc1ccc(Cl)cc1)NCCc1ccccn1 the results were STK33 inh -0.2.
Cc1ccc2c(c1)nnn2C1CCN(CC(=O)Nc2ccc(F)cc2)CC1 was read as STK33 inh -0.2.
CN(CCCC(=O)Nc1ccc(Br)cc1F)S(=O)(=O)c1ccccc1 was read as STK33 inh -1.5.
CC12CCC(=O)N1C(C(=O)Nc1ccc(Cl)c(Cl)c1)CS2 (configuration not stated) was read as STK33 inh -1.6.
Cc1ccccc1NC(=O)NC1(C(=O)N2CCCC2)CCCCC1 was read as STK33 inh 0.3.
CCSc1nc2c(c(=O)[nH]1)C(c1cccnc1)C(C(=O)OC)=C(C)N2 (configuration not stated) was read as STK33 inh 3.7.
For CCCNC(=O)CS(=O)Cc1nc(-c2ccccc2C)oc1C (configuration not stated) the results were STK33 inh -0.2.

16 structures out of the list, arranged by SMILES length, high to low.
For COc1ccc(CCC(=O)N2CCN(c3ccc([N+](=O)[O-])cc3)CC2)cc1OC the results were STK33 inh 0.4.
`COc1cc(CN2CCN(c3cccc(C)c3C)CC2)cc([N+](=O)[O-])c1O` gave STK33 inh -1.0.
CCSc1nc2c(c(=O)[nH]1)C(c1cccnc1)C(C(=O)OC)=C(C)N2 (configuration not stated) was read as STK33 inh 3.7.
Cc1ccc2c(c1)nnn2C1CCN(CC(=O)Nc2ccc(F)cc2)CC1 was read as STK33 inh -0.2.
CN(CCCC(=O)Nc1ccc(Br)cc1F)S(=O)(=O)c1ccccc1 was read as STK33 inh -1.5.
`O=C(O)c1ccc2c(c1)-c1cc(C(=O)O)ccc1S2(=O)=O` gave STK33 inh -0.9.
CC12CCC(=O)N1C(C(=O)Nc1ccc(Cl)c(Cl)c1)CS2 (configuration not stated) was read as STK33 inh -1.6.
`O=C(Nc1cc2c3c(c1)CC(=O)N3CCC2)c1ccccc1Br` gave STK33 inh 0.0.
For Cn1c(=O)cc(SCC(=O)N2CCCC2)c2ccc(Cl)cc21 the results were STK33 inh -2.8.
Cc1ccccc1NC(=O)NC1(C(=O)N2CCCC2)CCCCC1 was read as STK33 inh 0.3.
For CCCNC(=O)CS(=O)Cc1nc(-c2ccccc2C)oc1C (configuration not stated) the results were STK33 inh -0.2.
For Cc1ccc2cc(C#N)c(N3CCN(C)CC3)nc2c1 the results were STK33 inh -0.4.
`C=CCn1c(SCc2ccccc2)nnc1-c1cccnc1` gave STK33 inh -1.4.
For O=C1OC(Nc2ccc(Cl)cn2)c2ccccc21 (configuration not stated) the results were STK33 inh -5.8.
Screening Cc1cc(NC(=O)Nc2cc(F)ccc2F)no1 returned STK33 inh -0.1.
For S=C1NC2CCCCC2N1 (configuration not stated) the results were STK33 inh -0.4.

Next records:
Cc1cc(NC(=O)c2ccc(NC(=O)C3CCCO3)cc2)ccc1Br (configuration not stated) was read as STK33 inh -1.5.
`Cc1c(NS(=O)(=O)c2cc(C(=O)NCCN(C)C)ccc2Cl)c(=O)n(-c2ccccc2)n1C` gave STK33 inh -0.7.
`CC(=O)Nc1ccc(C(=O)NNC(=O)Cc2ccccc2)cc1` gave STK33 inh -0.3.
COc1ccccc1OCC(=O)Nc1ccc(O)cc1C(=O)O was read as STK33 inh -1.4.
`CC(C)n1c(SCc2ccc(Cl)cc2)nc2c1c(=O)[nH]c(=O)n2C` gave STK33 inh -1.7.
Screening COc1ccc(C(c2nnnn2CS(=O)(=O)c2ccc(C)cc2)N2CCN(Cc3ccccc3)CC2)cc1 (configuration not stated) returned STK33 inh -1.4.
For O=Cc1cccn1-c1c(C(=O)O)cnn1-c1ccccc1 the results were STK33 inh -1.1.
`Cc1ccc(CNC(=O)Cn2ccc3cc(S(=O)(=O)N4CCCC4)ccc32)o1` gave STK33 inh -0.6.
For CCC1(c2ccc(F)cc2)NC(=O)N(CC(=O)Nc2cc(S(=O)(=O)N(C)C)ccc2Cl)C1=O (configuration not stated) the results were STK33 inh -0.5.
`CCCCC(=O)Nc1nc2c(OC)cc([N+](=O)[O-])cc2s1` gave STK33 inh 0.8.
Cc1cc(C)c(S(=O)(=O)N(C)CC(N)=O)c(C)c1 was read as STK33 inh -1.0.
Screening Cc1cccc(C)c1NC(=O)CN1C(=O)COc2ccccc21 returned STK33 inh 2.0.
For O=C(NC1CCCc2ccccc21)c1ccc(Cl)nc1 (configuration not stated) the results were STK33 inh -0.7.
`O=C(O)CCC(=O)NCC1OCCc2ccccc21` (configuration not stated) gave STK33 inh 0.4.
Screening CC(=O)c1ccc(OCC(O)CN(C)CCOc2ccc(Br)cc2)cc1 (configuration not stated) returned STK33 inh -0.2.
`Cc1cn2c(-c3ccc(Cl)cc3)nnc2s1` gave STK33 inh 2.8.
`CSc1ccccc1NC(=O)C1=COCCO1` gave STK33 inh -0.9.
`O=C(Cc1ccccc1[N+](=O)[O-])Nc1nccs1` gave STK33 inh -1.6.
Cc1ccc(OCC(=O)N2CC3(C)CC2CC(C)(C)C3)cc1 (configuration not stated) was read as STK33 inh -0.7.
COCc1nnc(NC(=O)CS(=O)(=O)Cc2ccccc2)s1 was read as STK33 inh -3.7.
Cc1nc2ccc(C(=O)c3ccccc3)cc2[nH]1 was read as STK33 inh 0.5.
`CC1Cc2ccccc2N1S(=O)(=O)c1c(N)n(C)c(=O)n(C)c1=O` (configuration not stated) gave STK33 inh -1.6.
`Cc1ccc2c(=O)cc(C(=O)NCCc3ccc(S(N)(=O)=O)cc3)oc2c1C` gave STK33 inh -1.4.
Screening CCOc1ccc(C(=O)Nc2cccc3nsnc23)cc1[N+](=O)[O-] returned STK33 inh 1.4.
CC(C)(C)n1ncc2c(=O)n(CC(=O)NCc3ccccc3Cl)cnc21 was read as STK33 inh -2.1.
For COc1cc(/C=N/NC(=O)c2ccncc2)ccc1OC(=O)c1cccc(F)c1 the results were STK33 inh -0.2.
For O=S(=O)(N1CCOCC1)N1CCOCC1 the results were STK33 inh 0.0.
CC(=O)Nc1nc2nc(-c3ccccc3)cc(-c3ccccc3)n2n1 was read as STK33 inh 0.0.
Cc1cccc(-c2ocnc2C(=O)N2CCN(C(=O)c3cccs3)CC2)c1 was read as STK33 inh -1.3.

Screens from PubChem.

These rows are one share of the data; most or all hits stand in other tables.
